A1 apoptosis 2 – blocks A1, raising caspase activity. 24,000 tested, under 10 active. MEF A1-2A-BIM cells, caspase-Glo luminescence, 3 h; percent of clofoctol response, DMSO zero. caspase activation, % (no concentration beside the values); in the data active = caspase activation above about 5.9%;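 note: wells of about 30 µL received 50 nL stock; the first replicate is given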
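Evaluation: Caspase-3/7 activity from luminescence increase | Assay system: A1-2A-BIM mouse embryonic fibroblasts | Quantity: 2500 MEF cells/well | Medium: RPMI-1640 plus 10% FBS | Detection: Caspase-Glo 3/7 luminescence, 1 h at room temperature | Dosing: 50 nL compound per well, pinned | Timing: Cells settled overnight, compound exposure 3 h at 37 °C, 5% CO2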
Starred values were filed as active, the others as inactive. The list is partial. The share of hits here may be higher or lower than overall.

SMILES	A1 apoptosis 2
COc1cccc(NC(=O)N(C)C[C@@H]2OCc3cnnn3CCCC(=O)N([C@H](C)CO)C[C@H]2C)c1	0.3
CNC[C@@H]1Oc2c(NC(=O)Nc3ccc(C(F)(F)F)cc3)cccc2C(=O)N([C@@H](C)CO)C[C@H]1C	0.6
C[C@H](CO)N1C[C@H](C)[C@H](CN(C)Cc2ccc(C(=O)Nc3ccccc3N)cc2)Oc2ccc(NC(=O)CCN3CCOCC3)cc2C1=O	-1.3
C[C@@H]1CN([C@@H](C)CO)C(=O)Cc2cc(NS(=O)(=O)c3ccc(Cl)cc3)ccc2O[C@@H]1CN(C)S(=O)(=O)c1ccc(F)cc1	0.4
C[C@@H]1CN([C@H](C)CO)C(=O)c2cc(NS(=O)(=O)c3cn(C)cn3)ccc2O[C@@H]1CN(C)C(=O)Nc1ccc(F)cc1	0.1
COc1ccc(S(=O)(=O)Nc2cccc3c2O[C@@H](CN(C)C(=O)Nc2ccccc2)[C@H](C)CN([C@H](C)CO)C3=O)cc1	1.1
COc1ccc(S(=O)(=O)Nc2cccc3c2O[C@@H](CN(C)CC2CC2)[C@@H](C)CN([C@H](C)CO)C3=O)cc1	0.3
C[C@@H]1CCCCO[C@@H](CN(C)Cc2ccccc2)[C@H](C)CN([C@@H](C)CO)C(=O)c2cc(NS(=O)(=O)c3cccs3)ccc2O1	1.1
COc1ccc(NC(=O)Nc2cccc3c2O[C@H](CN(C)S(=O)(=O)c2ccc(F)cc2)[C@@H](C)CN([C@@H](C)CO)C3=O)cc1	0.3
Cc1ccc(S(=O)(=O)Nc2ccc3c(c2)C(=O)N([C@@H](C)CO)C[C@H](C)[C@@H](CN(C)C(=O)NC2CCCCC2)O3)cc1	-1.9
Cc1ccc(S(=O)(=O)Nc2ccc3c(c2)CC(=O)N([C@@H](C)CO)C[C@@H](C)[C@@H](CN(C)Cc2ccc4c(c2)OCO4)O3)cc1	-1.7
COc1ccc(NC(=O)N(C)C[C@@H]2OCCCC[C@H](C)Oc3ccc(NS(=O)(=O)c4cn(C)cn4)cc3C(=O)N([C@@H](C)CO)C[C@@H]2C)cc1	0.0

The closing 3 entries of the part above open the next one:
SMILES	A1 apoptosis 2
Cc1ccc(S(=O)(=O)Nc2ccc3c(c2)C(=O)N([C@@H](C)CO)C[C@H](C)[C@@H](CN(C)C(=O)NC2CCCCC2)O3)cc1	-1.9
Cc1ccc(S(=O)(=O)Nc2ccc3c(c2)CC(=O)N([C@@H](C)CO)C[C@@H](C)[C@@H](CN(C)Cc2ccc4c(c2)OCO4)O3)cc1	-1.7
COc1ccc(NC(=O)N(C)C[C@@H]2OCCCC[C@H](C)Oc3ccc(NS(=O)(=O)c4cn(C)cn4)cc3C(=O)N([C@@H](C)CO)C[C@@H]2C)cc1	0.0
C[C@@H]1CN([C@@H](C)CO)C(=O)c2cc(NC(=O)CCC(F)(F)F)ccc2O[C@H]1CN(C)C(=O)Nc1cccc2ccccc12	0.4
C[C@@H]1CCCCO[C@@H](CN(C)Cc2ccc(C(F)(F)F)cc2)[C@H](C)CN([C@@H](C)CO)C(=O)c2cc(NC(=O)Nc3ccccc3)ccc2O1	0.2
Cc1cc(C(=O)Nc2cccc3c2O[C@@H](CN(C)C(=O)Nc2ccc4c(c2)OCO4)[C@H](C)CN([C@H](C)CO)C3=O)n(C)n1	0.2
COc1ccc(NC(=O)Nc2ccc3c(c2)CC(=O)N([C@@H](C)CO)C[C@@H](C)[C@H](CN(C)C(=O)Nc2ccc(C(F)(F)F)cc2)O3)cc1	-1.2
COc1ccc(NC(=O)Nc2ccc3c(c2)CC(=O)N([C@H](C)CO)C[C@H](C)[C@@H](CN(C)S(=O)(=O)c2ccc(C)cc2)O3)cc1	-0.7
COC(=O)C(CC#Cc1ccc2c(c1)[C@]1(C(=O)N2)[C@H](c2ccc(OCCO)cc2)N2[C@H](c3ccccc3)[C@H](c3ccccc3)OC(=O)[C@H]2[C@@H]1C(N)=O)C(=O)OC	-0.5
CC(C)NC(=O)N(C)C[C@@H]1Oc2ccc(NC(=O)CCCN(C)C)cc2CC(=O)N([C@@H](C)CO)C[C@H]1C	1.1
CC(C)NC(=O)N(C)C[C@H]1Oc2c(NC(=O)NC3CCCCC3)cccc2C(=O)N([C@@H](C)CO)C[C@@H]1C	0.0
C[C@@H]1CN([C@H](C)CO)C(=O)c2cccc(NC(=O)Nc3ccc4c(c3)OCO4)c2O[C@H]1CN(C)CC1CCCCC1	-0.8
COc1ccc(NC(=O)Nc2cccc3c2O[C@H](CN(C)S(=O)(=O)c2ccccc2)[C@H](C)CN([C@H](C)CO)C3=O)cc1	-0.4
C[C@@H]1CCCCO[C@@H](CN(C)S(=O)(=O)c2cn(C)cn2)[C@H](C)CN([C@H](C)CO)C(=O)c2cc(NC(=O)NC3CCCCC3)ccc2O1	0.0
CC(C)(C)OC(=O)N1CCC[C@H]1/C=N/NC(=O)CCCCCC(=O)NO	0.7
C[C@H]1CN([C@@H](C)CO)C(=O)c2cccc(NC(=O)NC3CCCCC3)c2O[C@@H]1CN(C)Cc1ccncc1	0.4
Cc1cccc(CN(C)C[C@@H]2Oc3ncc(/C=C/c4ccccc4)cc3C(=O)N([C@H](C)CO)C[C@@H]2C)c1	-0.7
C[C@@H]1CN([C@H](C)CO)C(=O)Cc2cc(NC(=O)Cc3cn(C)c4ccccc34)ccc2O[C@H]1CN(C)CC1CCCCC1	0.2
C[C@@H]1CN([C@@H](C)CO)C(=O)c2cc(NC(=O)NC3CCCCC3)ccc2O[C@H]1CN(C)C(=O)Nc1cccc2ccccc12	-0.5
C[C@@H]1CN([C@@H](C)CO)C(=O)c2cc(NC(=O)Nc3ccc(C(F)(F)F)cc3)ccc2O[C@@H](C)CCCCO[C@H]1CN(C)C(=O)CCCN(C)C	0.3
C[C@@H]1CN([C@@H](C)CO)C(=O)c2cc(NS(=O)(=O)c3ccccc3)ccc2O[C@@H]1CN(C)C(=O)Nc1ccc(F)cc1	-1.6
C[C@@H]1CN([C@H](C)CO)C(=O)c2cc(NS(=O)(=O)c3ccc(F)cc3)ccc2O[C@@H](C)CCCCO[C@@H]1CN(C)Cc1ccccc1	-0.2
C[C@H](CO)N1C[C@H](C)[C@@H](CN(C)CC2CC2)Oc2ccc(NC(=O)CCC(F)(F)F)cc2CC1=O	0.0
Cc1noc(C)c1S(=O)(=O)Nc1ccc2c(c1)C(=O)N([C@@H](C)CO)C[C@@H](C)[C@H](CN(C)S(=O)(=O)c1cccs1)OCCCC[C@H](C)O2	0.6
Cc1noc(C)c1NC(=O)Nc1cccc2c1O[C@H](CN(C)Cc1ccncc1)[C@@H](C)CN([C@@H](C)CO)C2=O	-0.4
CC(C)NC(=O)Nc1cccc2c1O[C@H](CN(C)Cc1ccncc1)[C@H](C)CN([C@H](C)CO)C2=O	0.9
C[C@H](CO)N1C[C@H](C)[C@@H](CN(C)C(=O)Nc2ccc(C(F)(F)F)cc2)Oc2c(NC(=O)Nc3ccc4c(c3)OCO4)cccc2C1=O	-0.3
Cc1noc(C)c1NC(=O)Nc1cccc2c1O[C@@H](CN(C)Cc1ccc(Cl)c(Cl)c1)[C@H](C)CN([C@@H](C)CO)C2=O	-0.4
C[C@@H]1CN([C@H](C)CO)C(=O)c2cccc(NC(=O)Nc3ccc4c(c3)OCO4)c2O[C@@H]1CN(C)Cc1ccc(C(F)(F)F)cc1	1.0
C[C@@H]1CCCCO[C@@H](CN(C)S(=O)(=O)c2ccccc2)[C@H](C)CN([C@@H](C)CO)C(=O)c2cc(N(C)C)ccc2O1	-0.4
COc1ccc(NC(=O)Nc2cccc3c2O[C@H](CN(C)Cc2ccccc2)[C@@H](C)CN([C@H](C)CO)C3=O)cc1	-0.6
C[C@@H]1CN([C@@H](C)CO)C(=O)c2cc(NC(=O)CCN3CCOCC3)ccc2O[C@@H]1CN(C)Cc1ccc(-c2ccccc2)cc1	-0.5
Cc1noc(C)c1S(=O)(=O)N(C)C[C@@H]1Oc2ccc(NC(=O)Nc3ccc(F)cc3)cc2CC(=O)N([C@H](C)CO)C[C@@H]1C	0.2
C[C@@H]1CN([C@@H](C)CO)C(=O)Cc2cc(NS(=O)(=O)c3cccs3)ccc2O[C@@H]1CN(C)C(=O)Nc1cccc2ccccc12	1.6
C[C@@H]1CN([C@H](C)CO)C(=O)c2cc(NC(=O)CCCN(C)C)ccc2O[C@@H]1CN(C)C	-0.4
C[C@H]1CN([C@@H](C)CO)C(=O)Cc2cc(NS(=O)(=O)c3ccccc3)ccc2O[C@@H]1CN(C)S(=O)(=O)c1ccc(Cl)cc1	0.6
C[C@H]1CN([C@@H](C)CO)C(=O)c2cc(NC(=O)CCN3CCOCC3)ccc2O[C@H]1CN(C)S(=O)(=O)c1ccccc1	0.6
C[C@H](CO)N1C[C@H](C)[C@@H](CN(C)S(=O)(=O)c2ccc(Cl)cc2)Oc2ccc(NS(=O)(=O)c3cn(C)cn3)cc2C1=O	1.3
COC(=O)CCCCCCC(=O)N/N=C/c1cc(O)ccc1O	-0.6

5 compounds drawn at random from the list so far, as already listed:
SMILES	A1 apoptosis 2
C[C@@H]1CN([C@H](C)CO)C(=O)c2cccc(NC(=O)Nc3ccc4c(c3)OCO4)c2O[C@@H]1CN(C)Cc1ccc(C(F)(F)F)cc1	1.0
C[C@H](CO)N1C[C@H](C)[C@@H](CN(C)S(=O)(=O)c2ccc(Cl)cc2)Oc2ccc(NS(=O)(=O)c3cn(C)cn3)cc2C1=O	1.3
C[C@@H]1CN([C@H](C)CO)C(=O)c2cc(NC(=O)CCCN(C)C)ccc2O[C@@H]1CN(C)C	-0.4
C[C@H]1CN([C@@H](C)CO)C(=O)c2cc(NC(=O)CCN3CCOCC3)ccc2O[C@H]1CN(C)S(=O)(=O)c1ccccc1	0.6
COC(=O)CCCCCCC(=O)N/N=C/c1cc(O)ccc1O	-0.6

Following part.
SMILES	A1 apoptosis 2
COc1ccc(NC(=O)Nc2ccc3c(c2)CC(=O)N([C@@H](C)CO)C[C@H](C)[C@@H](CN(C)S(=O)(=O)c2cn(C)cn2)O3)cc1	-1.2
C[C@@H]1CN([C@H](C)CO)C(=O)Cc2cc(NC(=O)CCCN(C)C)ccc2O[C@H]1CN(C)C	0.9
Cc1ccc(S(=O)(=O)N(C)C[C@@H]2OCCCC[C@H](C)Oc3ccc(NS(=O)(=O)c4ccccc4)cc3C(=O)N([C@@H](C)CO)C[C@@H]2C)cc1	-0.6
C[C@@H]1CN([C@@H](C)CO)C(=O)c2cccc(NS(=O)(=O)c3cccs3)c2O[C@H]1CN(C)Cc1ccc(Oc2ccccc2)cc1	0.5
C[C@@H]1CCCCO[C@@H](CN(C)S(=O)(=O)c2ccccc2)[C@H](C)CN([C@@H](C)CO)C(=O)c2cc(NS(=O)(=O)c3cn(C)cn3)ccc2O1	-1.2
Cc1ccc(S(=O)(=O)Nc2ccc3c(c2)C(=O)N([C@H](C)CO)C[C@H](C)[C@@H](CN(C)S(=O)(=O)c2ccc(Cl)cc2)OCCCC[C@H](C)O3)cc1	-0.2
CCO[C@H]1OC(C(=O)N2CCCC2)=C[C@@H](c2ccc(Br)cc2)[C@@H]1CCCO	-0.9
CNC[C@H]1Oc2ccc(NS(=O)(=O)c3cn(C)cn3)cc2C(=O)N([C@H](C)CO)C[C@@H]1C	-0.4
O=S(=O)(N[C@@H]1CCN(Cc2ccc(OCCO)cc2)C1)c1cc(C(F)(F)F)ccc1Cl	0.4
C[C@@H]1CCCCO[C@@H](CN(C)Cc2ccncc2)[C@@H](C)CN([C@@H](C)CO)C(=O)c2cc(NC(=O)Cc3ccccc3)ccc2O1	-0.9
COc1ccc(S(=O)(=O)Nc2cccc3c2O[C@@H](CN(C)C(=O)Nc2ccc(F)cc2)[C@@H](C)CN([C@@H](C)CO)C3=O)cc1	-0.5
Cc1ccc(S(=O)(=O)N(C)C[C@H]2OCCCC[C@@H](C)Oc3ccc(NS(=O)(=O)c4cccs4)cc3C(=O)N([C@H](C)CO)C[C@@H]2C)cc1	-0.5
COc1ccc(NC(=O)N(C)C[C@@H]2OCCCC[C@@H](C)Oc3ccc(NC(=O)C4CCCCC4)cc3C(=O)N([C@H](C)CO)C[C@H]2C)cc1	0.3
COc1ccc(NC(=O)Nc2ccc3c(c2)CC(=O)N([C@@H](C)CO)C[C@@H](C)[C@H](CN(C)Cc2ccc(-c4ccccc4)cc2)O3)cc1	-0.3
C[C@@H]1CCCCO[C@@H](CN(C)Cc2ccc3c(c2)OCO3)[C@H](C)CN([C@H](C)CO)C(=O)c2cc(NC(=O)CCC(F)(F)F)ccc2O1	-0.4
CNC[C@H]1Oc2ccc(N(C)C)cc2C(=O)N([C@H](C)CO)C[C@H]1C	0.3
Cc1ccc(S(=O)(=O)N(C)C[C@@H]2OCCCC[C@H](C)Oc3ccc(NC(=O)NC(C)C)cc3C(=O)N([C@H](C)CO)C[C@@H]2C)cc1	0.9
O=C(O)CCCCCCC(=O)N/N=C/c1ccccc1	1.4
CC(C)NC(=O)N(C)C[C@H]1OCCCC[C@@H](C)Oc2ccc(NS(=O)(=O)c3ccccc3)cc2C(=O)N([C@H](C)CO)C[C@@H]1C	0.3
CC(C)NC(=O)Nc1ccc2c(c1)C(=O)N([C@@H](C)CO)C[C@H](C)[C@@H](CN(C)C(=O)Nc1ccccc1)OCCCC[C@H](C)O2	-0.7
Cc1noc(C)c1NC(=O)N(C)C[C@H]1Oc2ccc(NC(=O)NC3CCCCC3)cc2C(=O)N([C@@H](C)CO)C[C@H]1C	-1.3
C[C@H]1CN([C@@H](C)CO)C(=O)Cc2cc(NC(=O)CCN3CCOCC3)ccc2O[C@@H]1CN(C)Cc1ccc(C(=O)O)cc1	0.8
Cc1noc(C)c1NC(=O)Nc1ccc2c(c1)C(=O)N([C@@H](C)CO)C[C@H](C)[C@H](CN(C)C(=O)NC1CCCCC1)OCCCC[C@H](C)O2	-1.4

Compound activity (PubChem)
